Rango release inh – qHTS Assay for Inhibitors of RanGTP induced Rango (Ran-regulated importin-beta cargo) - Importin beta complex dissociation; Snurportin-1 (Homo sapiens) + GTP-binding nuclear protein Ran (Homo sapiens) + Importin …; hit rate 0.071% among 340,000; Biochemical FRET Rango-importin beta, RanGTP-induced dissociation; Potency, µM (doses to about 46.1 µM), inactives show at the highest dose activity change, negative = inhibition; active means falling FRET ratio curve, often poorly fitted, with flat reads before Ran was added; inconclusive means other falling curves, or compound fluorescence or quenching; inactive means flat or rising ratio curve;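 further: potency means the concentration at half of the fitted maximal effect; % of control where 0% means no effect; nearly all actives have a fitted effect of over 45% in size; -100% = wells without RanGTP and RCC1; the record marks most hits as doubtful in a second field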
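Rango FRET biosensor (snurportin-1 IBB flanked by N-terminal EYFP and C-terminal CFP10) at 0.1 uM, with 0.25 uM importin beta in PBS, 1mM DTT, 0.02% Tween-20, 0.1% BSA. 0.6 uM Ran, 2mM GTP and 0.2 uM RCC1 were then added for 45 min at room temperature. Inhibition read as loss of FRET rise.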
miR-21 FLuc – qHTS Assay for Modulators of miRNAs and/orActivators of miR-21 | HeLa miR-21 FLuc reporter, luciferase, 48 h | Potency, µM (titrated, usually from 38.3 µM), for the others: top-dose reporter change, positive = more light | 340,000 tested, under 10 active; active = well fitted rising curve with a large enough effect; inconclusive = small, poorly fitted or top-dose-only effect; inactive = no such curve, though single readings can be large or run the other way;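 further: % of control where 0% means no effect; miR-21 action dims this reporter so a rising signal means less miR-21 action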
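HeLa miR-21-FLuc reporter line, endogenous miR-21; 2000 cells/well in DMEM/10% FBS; compound titration up to ~40uM final, 48 h, 37 degree Celsius; luciferase detection reagent, 15 min lysis, CCD luminescence.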
GLA inh pH 4.5 – qHTS Assay for Inhibitors of Human alpha-Galactosidase at pH 4.5; purified enzyme, 4-MU-alpha-Gal fluorescence, pH 4.5; activity change, negative = inhibition, % at 105 µM; 230,000 tested, under 10 active; AID 1467, 2008; inconclusive = small, poorly fitted or top-dose-only inhibition, or a rising curve; inactive = flat fitted curve, though single readings scatter; no compound was filed as active;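 further: 0% = full activity with enzyme and -100% = basal without enzyme; dose as in the result columns while the protocol names 77 µM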
Rango-impB inh – qHTS Assay for Inhibitors of Rango (Ran-regulated importin-beta cargo) - Importin beta complex formation; hit rate 0.031% among 340,000; Rango CFP/YFP FRET sensor + importin beta, 45 min; Importin subunit beta-1 (Homo sapiens), Q14974; AID 540263, 2011; Potency, µM (doses to about 92.2 µM), for the others: at the highest dose inhibition of complex formation; active = rising FRET ratio curve, often small or poorly fitted; inconclusive = mostly compound fluorescence or quenching in the first reads; inactive = flat curves in all reads;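 further: potency means the concentration at half of the fitted maximal effect; 0% = DMSO wells and 100% = buffer wells lacking importin beta; nearly all actives have a fitted effect of over 15% in size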
Target sequence (Q14974 whole entry, looked up): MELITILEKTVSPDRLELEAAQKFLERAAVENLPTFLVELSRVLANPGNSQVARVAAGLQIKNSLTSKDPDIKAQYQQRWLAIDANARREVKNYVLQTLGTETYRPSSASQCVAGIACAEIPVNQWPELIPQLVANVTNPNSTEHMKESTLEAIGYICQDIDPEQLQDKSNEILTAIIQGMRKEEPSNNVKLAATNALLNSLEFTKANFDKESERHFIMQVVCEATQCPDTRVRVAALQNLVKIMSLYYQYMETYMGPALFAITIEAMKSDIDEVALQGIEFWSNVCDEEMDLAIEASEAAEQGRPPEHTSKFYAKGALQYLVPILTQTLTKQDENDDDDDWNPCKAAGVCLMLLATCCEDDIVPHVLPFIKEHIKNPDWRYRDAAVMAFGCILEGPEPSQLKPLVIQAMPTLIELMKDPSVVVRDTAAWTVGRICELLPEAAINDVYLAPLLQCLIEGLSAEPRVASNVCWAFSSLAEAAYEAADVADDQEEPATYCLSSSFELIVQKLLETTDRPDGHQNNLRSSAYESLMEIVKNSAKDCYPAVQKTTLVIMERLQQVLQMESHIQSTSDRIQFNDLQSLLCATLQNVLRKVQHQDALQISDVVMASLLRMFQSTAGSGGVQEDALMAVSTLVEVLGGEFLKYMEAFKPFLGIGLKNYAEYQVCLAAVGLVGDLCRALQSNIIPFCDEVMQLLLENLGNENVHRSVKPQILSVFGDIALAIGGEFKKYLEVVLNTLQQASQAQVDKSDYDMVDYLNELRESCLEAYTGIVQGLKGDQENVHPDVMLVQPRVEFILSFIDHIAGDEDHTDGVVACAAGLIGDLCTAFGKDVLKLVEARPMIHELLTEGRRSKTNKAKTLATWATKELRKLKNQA
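FRET biosensor Rango (snurportin 1 IBB between N-terminal EYFP and C-terminal Cerulean), 50 nM in PBS/1 mM DTT/0.02% Tween-20/0.1% BSA, preincubated 5 min RT with compound; 0.125 microM importin beta added, 45 min RT, CFP/YFP FRET ratio read.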
An asterisk follows results filed as active; ? = inconclusive; / = not tested or not shown. Not all compounds are listed. The share of hits here may be higher or lower than overall.

The line under a structure holds: Rango release inh	miR-21 FLuc	GLA inh pH 4.5	Rango-impB inh
- O=C(Nc1ccc(NC(=O)c2ccco2)c(Cl)c1)c1ccc2c(c1)OCCO2
  -8%	-37%	1	-0.6%
- O=C(CC(c1ccco1)S(=O)(=O)c1ccccc1)c1ccc(F)cc1 (stereo not drawn)
  16%	2%	-2	-5.8%
- NS(=O)(=O)c1ccc2nc(NC(=O)c3ccc4c(c3)OCCO4)sc2c1
  -6%	-5%	/	0.4%
- CCOC(=O)N1CCN(C(=O)CSc2nnc(-c3cc(OC)cc(OC)c3)o2)CC1
  4%	-2%	1	-0.5%
- COc1ccc(CCC(=O)Nc2cc(Cl)ccc2N2CCN(C)CC2)cc1
  -5%	-18%	6	1.0%
- Cn1nc(-c2ccc(C(=O)N3CCN(Cc4ccccc4)CC3)cc2)c2ccccc2c1=O
  -2%	17%	-12	-1.8%
- COc1cccc(CN(C)C(=O)c2cc(-c3cccs3)nc3ccccc23)c1
  0%	23%	/	2.8%
- CN1CCN(C(=O)C2=C[C@H](C(C)(C)C)C[C@H](OCCCCO)O2)CC1
  -8%	-5%	1	0.3%
- CCc1ccc(NS(=O)(=O)c2ccc3[nH]cc(C(=O)N4CCc5ccccc54)c(=O)c3c2)cc1
  1%	-46%	-3	2.4%
- CCOc1ccc(NS(=O)(=O)c2ccc(Cl)c(C(=O)N(C)Cc3cccnc3)c2)cc1
  -3%	/	/	-1.9%
- COC(=O)c1cc(C(=O)OCC(=O)Nc2cc(C)on2)cc([N+](=O)[O-])c1
  -12%	2%	-6	-4.0%
- O=C(O)c1ccc(C2SCC(=O)N2Cc2ccco2)cc1 (stereo not drawn)
  9%	3%	-11	4.4%
- CNC(=O)c1nnn(-c2ccccc2)c1C(=O)NC
  2%	-13%	2	-1.4%
- O=C(NCC(O)COc1ccc([N+](=O)[O-])cc1)c1ccccc1 (stereo not drawn)
  1%	8%	-10	1.9%
- Cn1c(SCc2ccc(Cl)cc2)nnc1C1CC1
  -8%	-16%	8	3.8%
- O=C(COC(=O)c1ccncc1)Nc1cccc2ccccc12
  4%	/	/	0.6%
- CCOc1ccc(CNc2ncc(-c3ccccc3)n2C)cc1
  12%	-10%	/	?
- O=S(=O)(c1cnc[nH]1)N1CCN(c2ccccc2)CC1
  -23%	-2%	8	?
- COc1cccc(C(=O)Nc2cc([N+](=O)[O-])ccc2N2CCN(C)CC2)c1
  -5%	-4%	-9	-1.4%
- Cc1nc(SCC(=O)Nc2ccc(CN3CCCC3)cc2)c2c(C)c(C)sc2n1
  25%	/	/	-1.0%
- CN(Cc1ccccc1F)C(=O)C1CCCN(C(=O)c2ccc(Cl)cc2)C1 (stereo not drawn)
  5%	/	/	-0.6%
- N#CCSc1nnc(Nc2ccccc2)s1
  1%	-5%	-2	-1.5%
- Cc1onc(-c2ccccc2)c1C(=O)N/N=C/c1ccc([N+](=O)[O-])c(O)c1
  4%	-1%	/	-0.2%
- O=C(CSc1nnc(-c2ccco2)o1)NCCc1ccccc1
  ?	/	/	-4.3%
- S=c1[nH]nc(-c2cccnc2)n1Cc1ccccc1
  5%	-11%	3	0.1%
- Cc1cc(C)cc(OCC(=O)NC2=NCCS2)c1
  -1%	-5%	-6	3.2%
- CCCCc1c(C)nc(N2CCCC2)[nH]c1=O
  -4%	2%	4	-0.5%
- CCN(CC)c1ccc(NC(=O)CCc2nnc3ccc(N4CCCCC4)nn23)c(C)c1
  11%	2%	/	0.5%
- COCCn1c(-c2ccc(OC)cc2)nc2oc3cc(OC)ccc3c(=O)c2c1=O
  -7%	-1%	4	1.0%
- O=C(Cc1c[nH]c2ccccc12)NCC(=O)Nc1ccc(F)c(F)c1F
  -3%	/	/	-3.1%
- COc1ccc(CNC(=O)CSc2nc(SC)ns2)cc1
  -3%	-2%	/	6.9%
- O=C(Cc1ccccc1)Nc1ccc(CN2CCOCC2)cc1
  13%	-34%	-3	-2.1%
- CCc1ccc(NC(=S)NC2CC3CCC(C2)N3Cc2ccco2)cc1 (stereo not drawn)
  3%	0%	-4	0.2%
- O=C(Nc1ccccc1)/C(=C/c1cccc(Br)c1)NC(=O)c1ccco1
  -4%	-7%	-11	-0.4%
- CCOC(=O)C1=C(O)/C(=C/c2ccc(OCC(=O)O)c(OC)c2)SC1=Nc1ccc(OCC)cc1
  -26%	10%	0	?
- CC(NC(=O)CN1CCN(c2cccc(Cl)c2)CC1)c1ccccc1 (stereo not drawn)
  -13%	3%	/	5.5%
- O=C(CSCc1ccc(F)cc1)Nc1nc2c(s1)CCCC2
  8%	-24%	0	1.7%
- C=CCNC(=O)C1CC(=O)N(c2ccc(OCC(=O)Nc3ccc(C)cc3)cc2)C1 (stereo not drawn)
  -6%	-5%	5	-0.5%
- CCSc1ccccc1C(=O)N1CCCC1
  -4%	-4%	2	-5.3%
- Cc1cc(Br)ccc1NC(=O)CN(C)C(=O)C1CCN(C(=O)c2ccc(F)cc2)CC1
  -1%	/	/	1.8%

Part of the list above in order of length of the SMILES, rising.
The line under a structure holds: Rango release inh	miR-21 FLuc	GLA inh pH 4.5	Rango-impB inh
- CCSc1ccccc1C(=O)N1CCCC1
  -4%	-4%	2	-5.3%
- COc1ccc(CNC(=O)CSc2nc(SC)ns2)cc1
  -3%	-2%	/	6.9%
- O=C(Cc1ccccc1)Nc1ccc(CN2CCOCC2)cc1
  13%	-34%	-3	-2.1%
- O=C(CSCc1ccc(F)cc1)Nc1nc2c(s1)CCCC2
  8%	-24%	0	1.7%
- CC(NC(=O)CN1CCN(c2cccc(Cl)c2)CC1)c1ccccc1 (stereo not drawn)
  -13%	3%	/	5.5%
- Cc1cc(Br)ccc1NC(=O)CN(C)C(=O)C1CCN(C(=O)c2ccc(F)cc2)CC1
  -1%	/	/	1.8%
- CCOC(=O)C1=C(O)/C(=C/c2ccc(OCC(=O)O)c(OC)c2)SC1=Nc1ccc(OCC)cc1
  -26%	10%	0	?

Later entries
The line under a structure holds: Rango release inh	miR-21 FLuc	GLA inh pH 4.5	Rango-impB inh
- CSc1cccc(NC(=O)c2sc3nc4n(c(=O)c3c2C)CCC4)c1
  -13%	-39%	/	0.1%
- COc1ccc(NC(=O)/C=C/C(=O)O)c(OC)c1
  10%	-1%	-1	-1.5%
- c1csc(-c2nnc(COc3ncnc4sccc34)o2)c1
  -2%	-31%	5	-2.1%
- COc1cccc(N=CC2=C(O)CCCC2=O)c1
  -8%	-4%	-10	0.2%
- O=C(Nc1ccncc1)c1ccccc1F
  -8%	8%	0	5.5%
- CC(C)C/C(O)=C/c1nc2cc(Cl)ccc2oc1=O
  15µM*	3%	2	?
- Cc1ccc(C(C(=O)NC2CCCC2)N(C(=O)c2csnn2)c2cccc(F)c2)o1 (stereo not drawn)
  -20%	-1%	/	-0.3%
- CC(=O)CC(=O)Nc1nc(C)cc(C)n1
  -16%	0%	5	-4.6%
- CC(C)(C)C(=O)O/N=C(\N)COc1cccc(Cl)c1
  -7%	-14%	1	-0.5%
- CCc1cccc(CC)c1NC(=O)COC(=O)CCc1cc(OC)c(OC)c(OC)c1
  -18%	-1%	3	?
- CCOC(=O)N1CCN(C(=O)c2c(Cl)cnn2C)CC1
  -6%	-3%	/	0.0%
- CCOC(=O)C1CCCN(C(=O)C2CCN(Cc3nc(-c4ccc(Cl)cc4)oc3C)CC2)C1 (stereo not drawn)
  -10%	/	/	-9.1%
- CN1CN(C)c2ccc([N+](=O)[O-])c3cccc1c23
  3%	-5%	/	7.2%
- COc1ccc(OC)c(NC(=O)N[C@@H](Cc2ccccc2)C(=O)O)c1
  -3%	-1%	3	-2.9%
- Cc1ccc(OCc2ccc(C(=O)Nc3cc(C)on3)o2)c([N+](=O)[O-])c1
  4%	-11%	/	-0.6%
- Cc1cc(C(=O)O[C@H]2[C@H](C)NS(=O)(=O)[C@H]3C[C@@H]4C=C[C@]23O4)cc([N+](=O)[O-])c1
  -14%	/	/	-2.6%
- Cc1cc(NC(=O)CCCC(=O)OCC(F)(F)C(F)F)cc(C)c1C(=O)O
  -1%	0%	2	-5.3%
- Cc1cccc(Nc2nc(N)nc(CN3CCN(c4ccccc4)CC3)n2)c1
  -10%	-16%	4	3.0%
- Cc1cc(C)n(NC(=S)NC2CCCC2)c(=O)c1C#N
  21%	-2%	-7	-0.9%
- CCC1=NN2C(=N)/C(=C\c3cccn3-c3ccc(C)cc3C)C(=O)N=C2S1
  -22%	7%	-11	-1.6%
- Cc1onc(-c2ccccc2)c1C(=O)N1CCN(S(=O)(=O)c2ccccc2C(F)(F)F)CC1
  8%	0%	/	-0.5%
- Oc1ccccc1CNCCCNCc1ccccc1O
  6%	-16%	6	1.5%
- Cc1ccc([N+](=O)[O-])cc1NC(=O)CSc1nnc(C)n1CC1CCCO1 (stereo not drawn)
  10%	0%	/	-1.4%
- Cn1c(=O)c2c(nc(OCc3cccnc3)n2Cc2ccccc2)n(C)c1=O
  0%	-8%	8	3.3%
- O=C(CCNC(=O)c1ccc(Br)cc1)Nc1ccccc1N1CCOCC1
  -15%	/	/	0.4%
- Cn1cccc1/C=N/N1CCN(Cc2ccccc2Cl)CC1
  21%	-2%	-2	2.2%
- Cc1cccc(N2CCN(C(=O)CCn3c(=S)[nH]c4cc5c(cc4c3=O)OCO5)CC2C)c1 (stereo not drawn)
  9%	-3%	0	0.2%
- Cn1nccc1C(=O)Nc1ccc(OC(=O)c2ccnn2C)cc1
  11%	-4%	-4	-1.9%
- CCOC(=O)c1c(C)n(-c2ccc(C)cc2)c2ccc(OCC(O)CN3CCN(C)CC3)cc12 (stereo not drawn)
  10%	23%	0	-0.6%
- O=C(Oc1ccc2c(c1)O/C(=C\c1ccncc1)C2=O)c1cccs1
  ?	-1%	1	?

Some entries already given with just GLA inh pH 4.5, Rango release inh and Rango-impB inh:
canonical_smiles,GLA inh pH 4.5,Rango release inh,Rango-impB inh
Cc1onc(-c2ccccc2)c1C(=O)N1CCN(S(=O)(=O)c2ccccc2C(F)(F)F)CC1,/,8%,-0.5%
Oc1ccccc1CNCCCNCc1ccccc1O,6,6%,1.5%
Cc1ccc([N+](=O)[O-])cc1NC(=O)CSc1nnc(C)n1CC1CCCO1 (stereo not drawn),/,10%,-1.4%

Next section
The line under a structure holds: Rango release inh	miR-21 FLuc	GLA inh pH 4.5	Rango-impB inh
- CN1CCN(C(=O)/C(=C/c2cccc([N+](=O)[O-])c2)NC(=O)c2ccccc2)CC1
  -7%	-3%	/	-0.6%
- O=C(CCN1C(=O)/C(=C\c2ccco2)SC1=S)Nc1ccc(C(=O)O)c(O)c1
  -9%	1%	/	3.3%
- CC(=O)c1ccccc1OCC(O)CNC1CCCC1 (stereo not drawn)
  12%	0%	/	-2.5%
- CCN(C(=O)COC(=O)CNC(=O)c1cccs1)c1c(N)n(Cc2ccccc2)c(=O)[nH]c1=O
  -1%	/	/	-3.6%
- CC1CC(C)(C)NC(C)c2ccccc21 (stereo not drawn)
  7%	-7%	-8	3.5%
- Cc1cnc(C(=O)Nc2ccc(F)c(F)c2)cn1
  8%	-40%	-26	0.2%
- COC(=O)C1(C)NC(c2ccc(F)cc2)C2C(=O)N(c3ccccc3)C(=O)C21 (stereo not drawn)
  13%	1%	/	9.3%
- CCOC(=O)C(NC(C)=O)C(OC(C)=O)c1cccc([N+](=O)[O-])c1 (stereo not drawn)
  12%	-2%	12	-0.9%
- C=CCNc1ncnc2c1cnn2-c1ccc(Cl)cc1
  11%	-75%	3	2.9%
- O=C(CSc1ccc(Cl)cc1)Nc1ccc(-c2nc3ccccc3[nH]2)cc1
  -5%	-11%	1	-4.2%
- Cc1nn(C(C)(C)C)c(NC(=O)c2ccc(Cl)cc2)c1Br
  -4%	0%	2	2.3%
